Screens as filed in PubChem.
TexasRed autofl = compounds fluorescent in Texas Red spectral region | max dye-equivalent concentration, M | Compound fluorescence, Texas Red channel, 547/618 nm; hits give high values | 59,000 tested, 0.06% active | AID 587; in the data active = max dye-equivalent concentration above about 10 nM; inconclusive = between about 1.1 nM and that limit
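qHTS profiling of intrinsic compound fluorescence; 100 mM Tris pH 8.0; 15 min RT; ex 547 / em 618 nm; response expressed as Texas Red dye-equivalent concentration from six-point plate standard.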
HBB splicing = modulators of hemoglobin beta chain splicing; HBB splicing reporter cell assay, activation; EGFP reporter with mutant IVS2-654 intron; response scale: normalised to 500 nM splice-correcting PNA; Potency, µM (titrated, usually from 46.1 µM), for inactives: at the top dose activation, actives largely listed as activators; AID 925; 65,000 tested, 0.06% active; also: potency is read from the fitted curve at half-maximal effect; 0% is about no effect
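Compounds were applied for 2 days to HeLa EGFP-654 cells, 500/well in Optimem with 2% FCS. The reporter's EGFP is disrupted by mis-splicing of beta-globin intron IVS2-654. Readout: summed well GFP fluorescence from 488 nm laser scanning; reference was 500 nM antisense […] 654 PNA.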
DNA Pol III inh = inhibitors of bacterial DNA polymerase III holoenzyme; AID 603; Potency, µM (highest dose often 57.1 µM), without a hit: at the highest dose activity change, negative = inhibition; reconstituted DNA polymerase III holoenzyme replication, biochemical; 71,000 tested, 0.25% active; also: potency is read from the fitted curve at half-maximal effect; % is scaled to controls: 0 for no effect and ±100 for the full control effect
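Reconstituted *E. coli* holoenzyme (0.35 nM Pol III, 1 nM beta, 154 nM SSB, 2 nM primase) was preincubated with compound for 15 min at RT. Synthesis on 1.4 nM ssM13Gori ran 35 min, then was stopped with PicoGreen/EDTA and read as dsDNA fluorescence.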
Rhodamine autofl = rhodamine region autofluorescence; max dye-equivalent concentration, M; AID 594; Rhodamine-region fluorescence, 547/598 nm, Tris buffer; hits give high values; 59,000 tested, 0.05% active; in the data active = max dye-equivalent concentration above about 11 nM; inconclusive = between about 1.1 nM and that limit
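Intensities are converted to rhodamine-equivalent concentration using a six-point rhodamine standard on each plate. Compounds sit 15 min at room temperature in 100 mM Tris buffer, pH 8.0; read uses the 547/598 nm excitation/emission pair.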
15-hLO inh = inhibitors of human 15-lipoxygenase (ALOX15) | Potency, µM (highest dose often 57.1 µM), for the others: top-dose activity change, negative = inhibition, most hits filed as inhibitors | purified 15hLO-1, xylenol orange hydroperoxide absorbance | 74,000 tested, 1.4% active | P16050; also: potency is read from the fitted curve at half-maximal effect; % is scaled to controls: 0 for no effect and ±100 for the full control effect; nearly all actives have a fitted effect of over 55% in size
Target sequence (P16050 whole entry, looked up): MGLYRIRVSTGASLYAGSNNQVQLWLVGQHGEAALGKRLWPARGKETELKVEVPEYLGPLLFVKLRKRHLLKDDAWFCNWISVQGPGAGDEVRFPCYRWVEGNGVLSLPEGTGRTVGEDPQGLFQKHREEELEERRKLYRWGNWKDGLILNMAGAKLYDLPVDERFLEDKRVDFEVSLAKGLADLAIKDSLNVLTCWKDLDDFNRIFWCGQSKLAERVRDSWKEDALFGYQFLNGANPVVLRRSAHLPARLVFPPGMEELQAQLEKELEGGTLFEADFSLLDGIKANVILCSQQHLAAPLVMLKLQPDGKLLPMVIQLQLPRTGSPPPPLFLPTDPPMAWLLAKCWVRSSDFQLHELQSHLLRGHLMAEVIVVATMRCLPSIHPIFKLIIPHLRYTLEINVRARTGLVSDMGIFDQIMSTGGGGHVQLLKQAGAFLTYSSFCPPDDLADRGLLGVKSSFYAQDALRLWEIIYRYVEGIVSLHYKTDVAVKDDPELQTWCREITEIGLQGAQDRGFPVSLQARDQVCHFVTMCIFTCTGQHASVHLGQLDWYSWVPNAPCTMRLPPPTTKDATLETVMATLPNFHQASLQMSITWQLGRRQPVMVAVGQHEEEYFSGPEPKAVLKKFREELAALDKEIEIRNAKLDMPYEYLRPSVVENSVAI
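Compounds were preincubated 15 min at room temperature with 40 nM purified human enzyme (25 mM Hepes pH 7.5, 0.01% Triton X-100); 50 uM arachidonic acid reacted 6 min. Fe-xylenol orange detection, 30 min, absorbance ratio 573/405 nm.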
CRE Fsk mod = CRE-bla signaling modulation under forskolin stimulation | CHO CRE-bla reporter (cAMP response element driving beta-lactamase), forskolin EC10, beta-lactamase ratio | Potency, µM (titrated, usually from 38.2 µM), for the others: at the top dose activity change, negative = inhibition, most hits filed as activators | 71,000 tested, 2.5% active; active = well fitted activation curve with a large enough effect in the signal ratio, with a control signal flat, not every such curve was filed as active; inconclusive = small, poorly fitted or top-dose-only effect, or effect the other way, or a change in a side signal; the % refers to the signal ratio; also: potency is read from the fitted curve at half-maximal effect; % of control where 0% means no effect
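CRE-bla CHO cells stimulated with EC10 NKH 477 (water-soluble forskolin) and compound titrations, 3 h at 37C; beta-lactamase read with CCF4 after 2 h at room temperature. Activity from 460/530 nm emission ratio, AC50 values for positive or negative modulation.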
FLuc inh = firefly luciferase inhibition; P08659; purified firefly luciferase, luminescence, 8 min; Potency, µM (titrated, usually from 57.1 µM), for the others: top-dose activity change, negative = inhibition, actives largely listed as inhibitors; 72,000 tested, 2.2% active; AID 411; also: potency is read from the fitted curve at half-maximal effect; % is scaled to controls: 0 for no effect and ±100 for the full control effect; nearly all actives have a fitted effect of over 40% in size
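Firefly luciferase (PKLight detection mix) with 10 uM ATP in pH 7.2 imidazole buffer (KCl, MgCl2, Tween 20, BSA). Compounds tested across a concentration series (qHTS). Luminescence read after 8 min at ambient temperature.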
ERK AVP inh = inhibitors of vasopressin-stimulated ERK signaling pathway; 72,000 tested, 0.99% active; Potency, µM (series often up to 57.5 µM), without a hit: top-dose activity, negative = inhibition, most hits filed as inhibitors; HEK293-V1b, vasopressin-stimulated pERK AlphaScreen; also: potency is read from the fitted curve at half-maximal effect; % is scaled to controls: 0 for no effect and ±100 for the full control effect; nearly all actives have a fitted effect of over 55% in size
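HEK293 cells stably expressing V1b receptor, seeded overnight in 1% FBS, were treated with compounds for 30 min at 37C, then stimulated 5 min with 25 nM vasopressin; phospho-ERK read by AlphaScreen SureFire after lysis.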
Tau filament bind = tau filament binding; P10636; recombinant tau filaments, thioflavin S fluorescence, 15 h; filaments grown with octadecylsulfate alongside compound; Potency, µM (top dose mostly 57.1 µM), without a hit: at the highest dose activity change, negative = inhibition; 71,000 tested, 2% active; AID 596;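 also: potency is read from the fitted curve at half-maximal effect; % is scaled to controls: 0 for no effect and ±100 for the full control effect; actives lower thioflavin S fluorescence by blocking filaments or displacing dye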
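Assay mix: 1 uM His-tagged tau, 30 uM sodium octadecylsulfate, thioflavine S dye in HEPES/NaCl/DTT buffer. Compound is added prior to the inducer. Fluorescence after 15 h at 37 C.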
HADH2 inh = blocks human hydroxyacyl-CoA dehydrogenase type II | Q99714 | 73,000 tested, 3.4% active | Potency, µM (titrated, usually from 57.1 µM), inactives show top-dose activity change, negative = inhibition, actives largely listed as inhibitors | recombinant HADH2, NADH fluorescence, beta-hydroxybutyryl-CoA; also: potency is read from the fitted curve at half-maximal effect; % is scaled to controls: 0 for no effect and ±100 for the full control effect; nearly all actives have a fitted effect of over 60% in size; many of its hits are not listed in these tables
Target sequence (Q99714 whole entry, looked up, one chain of several): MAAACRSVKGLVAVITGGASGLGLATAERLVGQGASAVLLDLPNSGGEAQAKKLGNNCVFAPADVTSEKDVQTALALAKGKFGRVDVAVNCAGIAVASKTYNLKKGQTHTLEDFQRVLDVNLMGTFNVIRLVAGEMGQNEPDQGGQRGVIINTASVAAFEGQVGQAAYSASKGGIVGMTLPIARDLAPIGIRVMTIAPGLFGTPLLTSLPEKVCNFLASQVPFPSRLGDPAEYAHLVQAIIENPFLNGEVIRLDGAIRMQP
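Activity measured as NADH fluorescence gain (360/450 nm), taken as the change between first and last reads of a 4-min kinetic run. Conditions: pH 9.0 Tris buffer, 20 nM E. coli-expressed His-tagged enzyme, 1 mM NAD+, 90 uM beta-hydroxybutyryl-CoA; 15-min compound preincubation.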
* = called active by the depositor; i = inactive; ? = inconclusive; / = no result given; [ ] = another dose, or the depositor's remark. Unless noted, calls follow the shape of the dose curve; as a rule, active = well fitted curve in the direction sought with a large enough effect; inconclusive = small, poorly fitted or top-dose-only effect, or another doubt; inactive = no such curve, though single readings can be large; an effect the other way counts as inactive or inconclusive. Only part of the results is shown (hit frequency here may not be typical).

SMILES | TexasRed autofl | HBB splicing | DNA Pol III inh | Rhodamine autofl | 15-hLO inh | CRE Fsk mod | FLuc inh | ERK AVP inh | Tau filament bind | HADH2 inh
Cc1cc(C)c2c(CC(=O)O)coc2c1 | / | -2.2% | -1% | / | 4% | -2% | 0% | -21% | 8% | 11%
CCCCN(CC)S(=O)(=O)c1ccc(C(=O)Nc2nnc(-c3cccs3)o2)cc1 | ? | -3.5% | -2% | i | 37%[activator] | -16% | 1% | 13% | 1% | -9%
Cc1ccc(S(=O)(=O)NC(=O)OC23COCN2COC3)cc1 | i | 0.5%[9.22 µM] | -9%[11.4 µM] | i | 4%[11.4 µM] | -2%[7.6 µM] | 3%[11.4 µM] | -10%[11.5 µM] | 2%[11.4 µM] | 1%[11.4 µM]
CC1CN(CCC(=O)Nc2ccc3c(c2)OCO3)CC(C)O1 (stereo unspecified) | i | 0.5%[57.5 µM] | ? | i | -47% | 0% | 3% | -7% | -11% | 19%
c1ccc(-n2c(SCC3CCCCO3)nnc2-c2cccs2)cc1 (stereo unspecified) | i | -0.8%[57.5 µM] | ? | i | -13% | 13% | 2% | -15% | 6% | 17%
CN(CCC(=O)Nc1ccc2c(c1)OCO2)Cc1ccccc1 | ? | -2.1% | 0% | i | 2% | -10% | 1% | -4% | -7% | -1%
Nc1nc(CN2CCN(c3ccccn3)CC2)nc(Nc2ccc(Cl)cc2)n1 | i | -0.5%[57.5 µM] | 6% | i | 3% | 6% | 1% | 32µM* | -9% | 1%
Cc1cccc(Nc2nc(N)nc(CN3CCC(C(N)=O)CC3)n2)c1C | i | 0.3%[0.369 µM] | -1% | i | 3% | 0% | -1% | -17% | 2% | 1%
O=C1CCCN1CCC1CCN(C(=O)Nc2ccccc2)CC1 | i | -1.1% | 3% | i | 8% | ? | -1% | -10% | -2% | -3%
Oc1ccccc1-c1cc(-c2ccc3c(c2)OCCO3)n[nH]1 | i | -0.4%[57.5 µM] | 1% | i | 13µM* | -10% | 3.2µM* | -7% | -19% | 4%
COc1ccc(C2c3c(-c4cc(Cl)c(C)cc4O)n[nH]c3C(=O)N2Cc2cccnc2)cc1OC (stereo unspecified) | i | -1.8%[57.5 µM] | 6% | i | -16% | 3.2µM* | 1% | ? | 131% | 1%
N#CC(C(=O)NC1CCCCC1)c1nc2ccccc2nc1N1CCOCC1 (stereo unspecified) | i | 4.9%[0.369 µM] | -3% | i | -5% | -21% | 0% | -25% | 7% | 3%
C=C(C)C1CC=C(CN2CCC(C(=O)OCC)CC2)CC1 (stereo unspecified) | / | -1.4%[9.22 µM] | -4% | / | ? | -1% | 0% | 32%[activator] | -12% | -8%
CCCCCCSc1nsc(NC(C)=O)n1 | i | / | -2% | i | 1% | -10% | 0% | 41%[activator] | -12% | 1%
O=C(Nc1nc(-c2cccs2)cs1)c1cccc(S(=O)(=O)N2CCCCC2)c1 | ? | -0.6% | -11% | i | -19% | 13% | 3% | -11% | -15% | ?
Cc1nn(-c2ccccc2)c(C)c1C(=O)OCC(=O)NC(=O)NC1CCCCC1 | ? | 0.0%[57.5 µM] | -4% | i | -14% | ? | 0% | -12% | 5% | 9%
c1csc(-c2noc(COc3ccc4c(c3)CCCC4)n2)c1 | i | -2.1% | 1% | i | -3% | 0% | -14% | 181%[activator] | -3% | ?
S=c1[nH]ncn1/N=C/c1ccccc1 | i | -2.4%[0.369 µM] | -1% | i | ? | -6% | 0% | -24% | -5% | -8%
CN1C(=O)N(C)C2C1N(C)S(=O)(=O)N2C (stereo unspecified) | ? | -2.4% | 2% | i | 14% | 5% | -1% | 8% | -7% | -3%
Cc1cccc(NC(=O)C2CCCN2S(=O)(=O)c2ccc(F)cc2)c1C (stereo unspecified) | i | / | -6% | i | 0% | 0% | 1% | -7% | 0% | 2%
COc1ccc(S(=O)(=O)N2CCC(C(=O)NCc3ccccn3)CC2)cc1C | ? | -2.2% | -7% | i | ? | 25% | 1% | ? | 3% | 6%
CC(C)N(C(=O)CN(C#N)c1nc(N(C)C)nc(N(C)C)n1)c1ccccc1 | / | 2.8% | -2% | / | -3% | 16% | 0% | 2% | 76% | 4%
O=C1CC(c2ccccc2)Sc2ccccc2N1 (stereo unspecified) | i | / | 5% | i | -9% | -5% | -2% | -5% | -5% | ?
COc1cc(NC(=O)CN2CCN(c3ccccc3F)CC2)cc(OC)c1 | i | -0.1% | 3% | i | -10% | -27% | 2% | 33%[activator] | 2% | 0%
Cc1cc(NCc2ccco2)nc2cc(O)ccc12 | / | 0.5% | -8% | / | ? | ? | -1% | / | 42% | 12%
CCOC(=O)c1[nH]c(COC(=O)CCCOc2ccccc2)c(C(=O)OCC)c1C | i | -2.9% | 0% | i | -1% | 13µM* | 1% | 5% | -10% | 0%
Fc1ccc(Cn2nnnc2CN2CCN(C3CCCCC3)CC2)cc1 | ? | 0.8% | -11% | i | 2% | -4% | -39% | 5% | 2% | 21%
CCCc1cc(C(=O)N2CCN(C(c3ccccc3)c3ccccc3)CC2)no1 | / | -0.8% | -4% | / | -6% | ? | 0% | 29% | 34% | -3%
CCC(Sc1ccc2nnc(-c3ccc(OC)c(OC)c3)n2n1)C(=O)O (stereo unspecified) | i | -0.9% | -6% | i | ? | 5% | 3% | 13% | -10% | ?
CC1CC(C)CN(Cc2nc(N)nc(Nc3ccc4ccccc4c3)n2)C1 (stereo unspecified) | i | -0.5% | -9% | i | 15% | -8% | -2% | -7% | 49% | -24%
Cc1ccc(C(=O)NCCNC(=O)CN2CCCC2)cc1 | / | -0.4%[9.22 µM] | 0% | / | -10% | -6% | 1% | -7% | 22% | 2%
Cc1ccccc1CS(=O)(=O)CCC(=O)NCCCN1CCOCC1 | i | 12%[0.369 µM] | 1% | i | -5% | -12% | 2% | -26% | 7% | 0%
O=C(CN1CCC(NC(=O)c2ccccc2)CC1)NCc1ccccc1F | i | / | -3% | i | 4% | -4% | -1% | 6% | 6% | 11%
O=C(CSc1ccc2nnc(-c3ccccn3)n2n1)N1CCOCC1 | / | 0.5% | -17% | / | 9% | 4% | 3% | / | -5% | -7%
CCCSc1nc(N)c2c3c(sc2n1)CN(C)CC3 | i | 0.2% | 0% | i | 5% | 2% | 2% | 2% | 15% | 1%
O=C(COC(=O)c1c2c(nc3ccccc13)CCCC2)Nc1ccc2c(c1)OCO2 | ? | 2.1% | 1% | i | -28% | 23% | -5% | ? | 16µM* | 7%
Cc1cc(NC(=O)CSc2ccc3nnc(-c4ccc(Cl)cc4)n3n2)no1 | i | -1.9% | -10% | i | -2% | 1% | 0% | 14% | 8% | -2%
O=C(c1cc(-c2ccco2)on1)N1CCN(C(c2ccccc2)c2ccccc2)CC1 | i | -2.2% | -9% | i | -24% | 13% | -1% | 15% | -5% | -9%
Cc1cc(C)nc(N2CCCC(C(=O)Nc3nc4ccc(S(C)(=O)=O)cc4s3)C2)n1 (stereo unspecified) | ? | 12% | 8% | i | -15% | ? | 1% | 11% | 25% | -6%
CCCn1c(=O)c2ccccc2n2c(SCN3C(=O)c4ccccc4C3=O)nnc12 | i | -0.3% | -8% | i | 1% | -5% | -33% | -9% | -4% | 0%
CCOC(=O)C1CCN(C(=O)CC(NS(=O)(=O)c2ccc(OC)cc2)C(C)C)CC1 (stereo unspecified) | i | -1.0% | 3% | i | 1% | ? | 2% | 5% | -1% | 16%
Cc1cc(N2CCN(C(=O)c3ccco3)CC2)n2ncc(-c3ccccc3)c2n1 | ? | 4.9%[1.84 µM] | 2% | i | -23% | ? | -21% | 4% | 45% | -174%
CCOc1ccc(OCC)c(NC(=O)C2CCN(S(=O)(=O)c3cnc[nH]3)CC2)c1 | i | -2.4% | -3% | i | -3% | ? | 0% | 9% | 4% | -4%
CC1CN(c2nc3ccccc3nc2C(C#N)C(=O)OC2CCCCC2)CC(C)O1 (stereo unspecified) | i | 2.9%[0.369 µM] | -1% | i | 9% | ? | 0% | -19% | -20% | 10%

3 entries from above, sorted by length of the SMILES, largest number first.
SMILES | TexasRed autofl | HBB splicing | DNA Pol III inh | Rhodamine autofl | 15-hLO inh | CRE Fsk mod | FLuc inh | ERK AVP inh | Tau filament bind | HADH2 inh
COc1cc(NC(=O)CN2CCN(c3ccccc3F)CC2)cc(OC)c1 | i | -0.1% | 3% | i | -10% | -27% | 2% | 33%[activator] | 2% | 0%
c1csc(-c2noc(COc3ccc4c(c3)CCCC4)n2)c1 | i | -2.1% | 1% | i | -3% | 0% | -14% | 181%[activator] | -3% | ?
S=c1[nH]ncn1/N=C/c1ccccc1 | i | -2.4%[0.369 µM] | -1% | i | ? | -6% | 0% | -24% | -5% | -8%
